# Source: PubChem BioAssay (ICCB-Longwood Screening Facility, Harvard Medical School)
# Ba CapD inh: CapD enzyme inhibition; purified CapD enzyme, fluorescence intensity read-out; active compounds read low; some hits fall short of the stated cut; z-score (no concentration beside the values); hit rate 0.23% among 140,000; AID 492967;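 active = z-score under -4 in either of two replicates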;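 note: stock transfer was 100 nL into about 40 µL; score is relative to mean and spread of the plate; one replicate is shown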
# AID504770: growth inhibitors of E. coli YBA685 in a screen for V. cholerae RctB (chromosome II replication) inhibitors. E. coli YBA685 rctB-dependent plasmid, OD600 growth, 3 h; active compounds read low. z-score (concentration not given with the values). hit rate 0.27% among 130,000;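 active = z-score under -2 on both plates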;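 note: wells of about 30 µL received 100 nL stock; score is relative to mean and SD of the test wells; the first replicate is given; strong numbers were not always called active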
# * marks the source's active call; other numbers are inactive results; nt = not tested or not shown; & = joins results of further samples.
SMILES,Ba CapD inh,AID504770
CN(N)c1cc(=O)n(C)c(=O)[nH]1,nt,0.25
O=C(CC(NC(=O)C(F)(F)F)c1ccccc1)Nc1nnc(CCc2ccccc2)s1 (stereo not given),0.08,nt
O=c1cc(-c2cccs2)oc2ccc(Cl)cc12,7.9,-0.1
COC(OC)c1ccc(C#N)c(SCC(=O)c2ccccc2)n1,7.22,-0.2
O=C(NCc1ccccc1)c1cc(-c2ccco2)on1,-1.13,-0.2
COc1ccc(C(C)=O)c(NC(C)=O)c1,0.07,nt
CC1CCN(c2ncnc3scc(-c4ccccc4)c23)CC1,-0.535,nt
CCCn1c(N)c(C(=O)COC(=O)c2cc(-c3ccc(C)o3)nc3ccccc23)c(=O)[nH]c1=O,nt,-0.9
O=C(NCCc1ccccc1)c1ccc2c(c1)sc1nc(-c3ccccc3)cn12,-0.245,-1.45
COc1ccc(C(=O)COC(=O)C(Cc2c[nH]c3ccccc23)NC(=O)c2ccco2)cc1 (stereo not given),0.425,nt

# Continued (seven carried over from the part before).
SMILES,Ba CapD inh,AID504770
COC(OC)c1ccc(C#N)c(SCC(=O)c2ccccc2)n1,7.22,-0.2
O=C(NCc1ccccc1)c1cc(-c2ccco2)on1,-1.13,-0.2
COc1ccc(C(C)=O)c(NC(C)=O)c1,0.07,nt
CC1CCN(c2ncnc3scc(-c4ccccc4)c23)CC1,-0.535,nt
CCCn1c(N)c(C(=O)COC(=O)c2cc(-c3ccc(C)o3)nc3ccccc23)c(=O)[nH]c1=O,nt,-0.9
O=C(NCCc1ccccc1)c1ccc2c(c1)sc1nc(-c3ccccc3)cn12,-0.245,-1.45
COc1ccc(C(=O)COC(=O)C(Cc2c[nH]c3ccccc23)NC(=O)c2ccco2)cc1 (stereo not given),0.425,nt
c1coc(CNc2nc(N3CCCCC3)nc(N3CCOCC3)n2)c1,0.385,nt
Cc1[nH]ncc1-c1ccccc1,0.055,nt
CC1C2CC(CC1(C)C)N(C(=O)c1ccc(N3C(=O)c4ccccc4C3=O)cc1)C2 (stereo not given),-0.22,-0.2
CC1(C)c2ssc(=S)c2-c2ccccc2N1CC(=O)c1ccc(F)cc1,0.625,nt
O=C(c1ccccc1)C1CCN(C(=O)CS(=O)(=O)c2ccc(Cl)cc2)CC1,-0.67,2.75
CNC(C)(C)c1nnnn1-c1c(C)cccc1C,-0.23,nt
COC(=O)CSc1nnc(-c2c[nH]c3ccccc23)n1-c1ccc(F)cc1,0.25,-0.4
CC(=O)NS(=O)(=O)c1ccc(NC(=O)c2ccccc2C(=O)O)cc1,-0.53,-0.25
N#C/C(=C\c1cccnc1)C(=O)Nc1ccccc1,nt,-0.95
O=C(c1sc2ccccc2c1Cl)N1CCN(c2ccc([N+](=O)[O-])cc2Cl)CC1,-0.09,nt
CCCCCCCCCCCCCCCCCC[n+]1ccccc1,-0.265,nt
CCOC(=O)c1ccc(-c2ccc(/C=C(\C#N)C(=O)NC(C)(C)C)o2)cc1,0.175,-0.7
CCOC(=O)NNC(=S)Nc1ccccc1OC,-0.095,nt
Cn1cc(Br)c(=O)n(C)c1=O,0.3,1.95
CCN(CC)C(=O)Cc1ccc(Br)cc1,0.165,0.25
CC(C)c1ccc(CN2CCC(N(C)S(=O)(=O)c3cccc(Br)c3)C2)cc1 (stereo not given),-0.08,nt
Cc1ccc2c(c1)sc1nc(=O)ccn12,0.645,1.15
Cc1sc2c(c1C)CN(Cc1ccccc1)CN2C(=O)c1ccco1,nt,-0.25
COC(CNC(=O)CN1CCN(Cc2ccc(F)cc2Cl)C1=O)OC,-0.835,-1
O=C(NCc1ccccc1)c1cc(-c2ccco2)nc2ccccc12,nt,0.55
COc1cc(OC)nc(CN2CCN(C(=O)c3ccc(C(C)(C)C)cc3)CC2)n1,-0.39,nt
Fc1cccc(-c2nnn3c2nc(Cl)c2ccccc23)c1,0.45,0.65
Cc1cc(Cl)ccc1N1C(=O)C(N2C(=O)c3ccc([N+](=O)[O-])cc3C2=O)C1c1ccc(F)cc1 (stereo not given),-0.525,nt
O=C(NCCN1CCOCC1)C1CCC(Cn2c(=S)[nH]c3ccccc3c2=O)CC1 (stereo not given),0.915,-0.1
CS(=O)(=O)c1ccc(-c2nn[nH]n2)cc1,nt,1.65
Cc1cccc(-c2noc(CNC(=O)CC(C)(C)C)n2)c1,0.765,-0.55
Nc1nc(SC/C=C/c2ccccc2)n[nH]1,-0.59,-0.3
Cc1ccc(Sc2ncccc2C(N)=O)cc1,0.26,nt
O=C1CN(c2nc(-c3ccc(Cl)cc3)cs2)CCN1,0.45,1.1
O=C(NC1(O)C(=O)c2ccccc2C1=O)c1ccccc1,2.83,-0.3
Fc1ccc(COc2ccccc2CNC2CCCC2)cc1,0.085,-0.65
Cc1ccc2[nH]c(=O)c(CCC(=O)O)c(C)c2c1,64.8,-0.6
CCOC(=O)C(C(=O)OCC)(C(Sc1ccccc1)C(C)(C)C1OCCO1)N1C(=O)c2ccccc2C1=O (stereo not given),-0.44,nt
Cc1cc(C)c2c(=O)[nH]n(C3CC(C)N(C)CC3C)c2n1 (stereo not given),0.06,-0.25
CN(C)c1c(F)cc(C(=O)NCc2ccccc2)cc1F,0.45,0.4
CCN1CCN(Cc2ccoc2)CC1,0.285,-0.45
c1ccc2c(CN3CCN(Cc4ccncc4)CC3)c[nH]c2c1,0.18,1.35
CC(Sc1n[nH]c(-c2ccncc2)n1)C(=O)N(C)c1ccccc1 (stereo not given),nt,-0.45
CCNc1c(NS(=O)(=O)c2ccc(C)cc2)c(=O)oc2ccccc12,1.09,-0.5
CC(=O)Nc1c(C(=O)N2CCOCC2)sc2nc3c(cc12)COC(C)(C)C3,0.115,1.05
Cn1cnnc1SCC(=O)Nc1ccccc1,nt,0.7
COC(=O)NC1c2ccccc2Oc2ccc(C)cc21 (stereo not given),0.185,0.85
C=CCSc1nc2c(cnn2-c2ccc(C)c(C)c2)c(=O)[nH]1,-0.995,1
CCC(=O)c1ccc(OC(F)F)cc1,nt,-0.2
COc1ccc(N2CCN(Cc3nc4ccsc4c(=O)[nH]3)CC2)cc1,nt,-1.15
COc1cc(/C=N/NC(=O)Cc2csc(-c3ccccc3)n2)c([N+](=O)[O-])cc1OC,-0.75,nt
Cc1n[nH]c(C)c1CS(=O)(=O)c1ccccc1,-0.16,0.05
NS(=O)(=O)c1ccc(NC(=O)c2ccc(-c3ccccc3Cl)o2)cc1,2.09,-0.55
COc1ccc(NS(=O)(=O)c2sc(Cl)cc2Br)c(OC)n1,-0.03,-0.4
CCOC(=O)c1c(C)c(C(=O)N2CC(C)CC(C)C2)c(C)n1C (stereo not given),nt,0.3

# Following part
SMILES,Ba CapD inh,AID504770
COC(CNc1ncnc2sc3c(c12)CCC3)OC,nt,-0.1
COc1ccc(-c2nc(-c3ccc(-c4ccccc4)cc3)cs2)cc1,0.67,nt
Nc1cccc(C(=O)N2CCOCC2)c1,nt,-0.85
CCNC(=O)C1CCCN(S(=O)(=O)N(CC)c2ccc(OCC)cc2)C1 (stereo not given),-0.065,0.2
O=C(COC(=O)c1ccc(O)cc1)Nc1cc(C(F)(F)F)ccc1N1CCOCC1,nt,-0.15
O=C1CN=C(c2ccccc2)c2cc([N+](=O)[O-])ccc2N1,-0.19,nt
COc1ccc(C2CC2/C(=N/OC(=O)c2cccs2)c2ccccc2)cc1 (stereo not given),-0.465,nt
NS(=O)(=O)c1ccc2ccccc2c1,0.145,-0.6
O=C(COC(=O)c1c2c(nc3ccccc13)CCC2)Nc1ccccc1,2.17,-0.85
COc1ccc(C)cc1NC(=O)C1CC1C (stereo not given),nt,-0.4
O=C(c1cccc(N2CCCC2=O)c1)N1CCC2(CC1)OCCO2,-0.085,-0.7
COc1ccc(F)c(CN2CCN(S(=O)(=O)c3ccc(Cl)c(Cl)c3)CC2)c1,-0.635,nt
CC1=CC(=C2C(=O)NC(=S)NC2=O)C=C(C(F)(F)F)N1CCOCCO,-1.17,-0.1
CN(c1cccc2cccnc12)S(=O)(=O)c1ccccc1,-0.79,1.6
CN(C)/C=C1\C(=O)N(c2ccccc2)C(=O)C1=Nc1ccccc1,-0.495,-1.15
O=S(=O)(c1ccccc1)N1CCC(N2CCCCC2)CC1,0.33,0.05
CCOc1ccc(Oc2cc(NC(=O)c3ccc(F)cc3)cc(NC(=O)c3ccc(F)cc3)c2)cc1,-0.16,-0.3
CCOc1ccc(C(=O)OCC(=O)N2CCCCC2)cc1,0.41,0.95
Cn1c(N)c(C(=O)CN2CCN(S(=O)(=O)/C=C/c3ccccc3)CC2)c(=O)n(C)c1=O,nt,0.75
Cc1ccc(NC(=O)Cn2c(=O)/c(=C/c3ccc(N(C)C)cc3)s/c2=C\C#N)cc1,nt,2.15
COc1ccc(-c2cc(C(=O)NCC3CCCO3)on2)cc1OC (stereo not given),-0.365,-0.7
N=C1/C(=C/c2ccc(SC3CCCCC3)o2)C(=O)N=C2SC=CN12,0.08,2.3
CC1=CCC(C(=O)O)C(c2ccc(Br)cc2)C1 (stereo not given),-0.3,nt
CCOC(=O)c1c(NS(=O)(=O)c2ccc(Br)cc2)sc2c1CCC(C)C2 (stereo not given),-0.26,-0.85
Cc1ccc2c(c1)/C(=C/c1ccccc1)c1cccnc1-2,7.84,nt
Cc1cc(C)c(C#N)c(SCC(=O)NC23CC4CC(CC(C4)C2)C3)n1,-0.965,nt
O=C(c1ccsc1)N1CCC(C(O)(c2ccccc2)c2ccccc2)CC1,-0.995,nt
Cc1cc(/C=N/NC(=O)c2ccncc2)c(C)n1-c1ccccc1,-1.1,0.2
Cc1ccc(C(C)C)c(OCC(=O)Nc2cc(-c3nc4ncccc4o3)ccc2C)c1,-0.8,-1.05
COc1ccc(CC(=O)N2N=C(C)CC2(O)C(F)(F)F)cc1 (stereo not given),0.35,-0.3
O=C(CCc1nc2ccccc2c(=O)[nH]1)N(Cc1nnc(-c2ccccc2Cl)o1)C1CC1,nt,-0.4
O=C(Nc1ccc(Cl)cc1C(F)(F)F)C(Sc1cccc[n+]1[O-])c1ccccc1 (stereo not given),0.48,-0.85
CCCN1CCc2nc3ccncc3cc2C1,9.28,nt
CCCCCn1c(SCC(=O)Nc2ccc(OCC)cc2)nc2cc(C(=O)NCc3ccco3)ccc2c1=O,-0.275,nt
O=C(CSc1ncccn1)c1ccc(O)c(O)c1,-1.54,-1.45
CCC1CN2CCC34c5ccccc5NC3C(C)C1CC24 (stereo not given),0.63,-0.35
CCc1ccc2nc(N3CCC(C(=O)NC4CC4)CC3)sc2c1,1,-0.2
CCOC(=O)C1CCCN(C(=O)c2sc3nc(C)nc(N(CC)CC)c3c2C)C1 (stereo not given),0.5,nt
N#Cc1ccc(NC(=O)c2cc(C3CC3)nn2-c2ccccc2)cc1,nt,-0.35
CS(=O)(=O)Nc1ncnc2sccc12,nt,-1
CCN(C(=O)CSc1nccn1C)c1ccccc1,-0.055,0.4
CC(=O)Nc1ccc(S(=O)(=O)NCC2CCC(C(=O)N3CCC4(CC3)OCCO4)CC2)cc1 (stereo not given),0.405,0.6
COc1cccc(NC(=O)CN(C)CC(=O)Nc2cccc(Br)c2)c1,nt,1.15
CC(Oc1ccc(F)cc1)C(=O)NCc1ccncc1 (stereo not given),0.69,-1.25
CCOC(=O)C1=C(C)NC2=C(C(=O)c3ccccc32)C1c1ccc(C)cc1 (stereo not given),0.625,nt
CCOC(=O)c1cnc(=S)[nH]c1N,-0.745,nt
CN(C)c1nc(SCC(N)=O)nc(N(C)C)n1,0.535,-0.1
CCOC(=O)C1=C(C(=O)OCC)SC2(S1)C(C(=O)OCC)=C(C(=O)OCC)SC1=C2c2cc(C)ccc2N(C(=O)CC)C1(C)C,-0.29,nt
COc1ccc(/C=[N+](\C)[O-])c(OC)c1,nt,0.1
CCOC(=O)c1c(CSc2ccsc2)n(C)c2cc(Br)c(O)c(CN(C)C)c12,-0.62,-0.5

# Next entries.
SMILES,Ba CapD inh,AID504770
O=C(c1noc2c1CCc1sccc1-2)N1CCc2ccccc21,-1.34,-2.25
O=C(Cn1cnc2c(nnn2Cc2ccccc2)c1=O)c1ccccc1,nt,0.55
Cc1ccc(SCC(=O)NCCCN2CCCC2=O)c(C)c1,nt,-0.2
O=C(NCCN1CCCC1)c1ccc(Cl)cc1,nt,2.3
CCCCCN1C(=O)/C(=C2\SC(=S)N(NC(=O)c3ccncc3)C2=O)c2ccccc21,0.1,nt
COc1ccc(C(=O)CN2CCCc3cc(C)ccc32)cc1,0.905,-0.4
CC(C)S(=O)(=O)/C(C#N)=C/Nc1ncccn1,-0.12,0.75
CCOc1ccc2c(c1)SC1=NC(C(F)(F)F)(C(F)(F)F)NC(=O)N12,0.535,1.25
COC(=O)Cc1[nH]n(-c2ccccc2)c(=O)c1C=Nc1ccc(C)cc1,-0.235,0.05
CCn1cc(CCCC(=O)NCCC2=CCCCC2)c2ccccc21,-0.155,0.15
CNC(=S)N/N=C/c1ccc(OC)cc1,-2.37,nt
CCOC(=O)Cc1nnc2c(Nc3ccc(Cl)cc3)nc3nonc3n12,-0.14,nt
Cc1cc(C)cc(CC(C(=O)O)C(C)C(=O)Nc2cccc(C(F)(F)F)c2)c1 (stereo not given),0.155,-1.15
Cc1cc(CC(=O)O)n(C)c1C(=O)c1ccc(Cl)cc1,-0.535&-0.715,-0.8
Cn1c(=N)n(CC(=O)C23CC4CC(CC(C4)C2)C3)c2ccccc21,0.38,-0.3
Cc1nc2ccccn2c(=O)c1NC(=O)C(C)C,nt,-1.15
CCN1CCC(=NNC(=O)COc2ccc(Cl)cc2Cl)CC1,nt,1.8

# Structural class, the compounds so far containing a COOH group.
SMILES,Ba CapD inh,AID504770
CC(=O)NS(=O)(=O)c1ccc(NC(=O)c2ccccc2C(=O)O)cc1,-0.53,-0.25
Cc1ccc2[nH]c(=O)c(CCC(=O)O)c(C)c2c1,64.8,-0.6
CC1=CCC(C(=O)O)C(c2ccc(Br)cc2)C1 (stereo not given),-0.3,nt
Cc1cc(C)cc(CC(C(=O)O)C(C)C(=O)Nc2cccc(C(F)(F)F)c2)c1 (stereo not given),0.155,-1.15
Cc1cc(CC(=O)O)n(C)c1C(=O)c1ccc(Cl)cc1,-0.535&-0.715,-0.8
